# Beta cell apopt – inhibitors of cytokine-induced beta cell apoptosis, primary screen, luminescence; INS-1E cytokine-induced death, ATP luminescence, 48 h; percent of positive-control rescue, neutral wells zero; protection from apoptosis, % (no concentration beside the values); actives 0.8% (n = 300,000); AID 435005, 2010;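 active = all replicates at 75% or more, or half of them and the mean; inconclusive = half reach 75% but not the mean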;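 note: 0% = cytokine-treated negative control wells and 100% = positive control rescue; higher means more ATP so stronger rescue from cytokine killing; wells of about 40 µL received 100 nL stock; the first replicate is given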
# T cruzi inh – inhibitors of intracellular T. cruzi growth, primary screen, luminescence, NIH3T3 host cells. T. cruzi beta-gal in NIH3T3, 90 h. inhibition, % (no concentration beside the values). actives 1.4% (n = 300,000);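 active = mean inhibition across valid replicates above about 55%, limit read from the data; inconclusive = mean below that limit but half or more replicates reach it; inactive = mean below it, under half of replicates reach it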;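 note: signal also drops with host cell toxicity which is not excluded here; 0% = plate median of DMSO wells and 100% = zero luminescence signal; higher percent means less beta-gal luminescence so fewer parasites; stock transfer was 50 nL into about 50 µL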
# Bfl-1 A1 inh – caspase 3/7 activation in MEF A1-2A-BIM cells, primary screen, A1 inhibitor project, cell-based, luminescence, HTS | Caspase-Glo 3/7 luminescence, 3 h; percent of clofoctol response, vehicle zero | caspase activation, % (concentration not given with the values) | actives 0.066% (n = 330,000) | AID 2462, 2010;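 active = over half of replicate activation scores above 10%, or exactly half above 10 with the replicate mean above 10; inconclusive = replicate mean below 10 yet half the replicates above 10; inactive = over half of replicates below 10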;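 note: wells of about 30 µL received 50 nL stock; many hits fall short of the cut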
# * = called active by the depositor; ? = inconclusive.
# The opening 2 entries, to show the layout:
SMILES,Beta cell apopt,T cruzi inh,Bfl-1 A1 inh
CCOC(=O)c1cccc(NC(=O)CN(c2ccc(OC)cc2)S(=O)(=O)c2c(C)noc2C)c1,1,7,0.2
CCCCCCCCC(=O)N/N=C(\C)c1cccnc1,-2,-8,-0.2

# The list itself (from the top)
SMILES,Beta cell apopt,T cruzi inh,Bfl-1 A1 inh
CCOC(=O)c1cccc(NC(=O)CN(c2ccc(OC)cc2)S(=O)(=O)c2c(C)noc2C)c1,1,7,0.2
CCCCCCCCC(=O)N/N=C(\C)c1cccnc1,-2,-8,-0.2
Cc1ccc(/C=N/Nc2nc3ccccc3s2)o1,-1,2,-6.8
C/C(CC(=O)NC1CCCC1)=N\NC(=O)Cc1csc(N)n1,-1,-9,-0.8
O=C(Nc1ccccc1)OCN1C(=O)c2ccccc2C1=O,-3,9,0.1
COc1ccc(/C=N/NC(=O)CNC(=O)c2ccc(S(=O)(=O)N3CCOCC3)cc2)c(OC)c1,0,-2,-1.2
COc1cc(/C=N/NC(=O)/C(=C/c2ccccc2)CCO)ccc1O,-6,-2,2.4
Cc1cccc(NC(=S)N/N=C/c2ccc3c(c2)OCO3)c1,9,-17,0.5
CC(C)(NO)/C(=N\O)c1ccc(Cl)cc1,0,1,-0.1
CNC(=S)N/N=C/c1cn(CCOc2ccccc2OC)c2ccccc12,-1,20,-0.8
COc1ccc(Cc2nc(C(=O)Nc3ccccc3)cs2)cc1,3,-4,-1.4
O=P(/C(=N/O)Sc1ccccc1)(N1CCOCC1)N1CCOCC1,-7,-3,-0.1
CC1=CC(C#N)(C#N)C(C#N)(C#N)C(c2ccccc2)N1 (centres undefined),9,-2,0.4
Cn1cc([N+](=O)[O-])c(C(=O)Nc2cc(Oc3cccnc3)cc([N+](=O)[O-])c2)n1,-9,-48,0.4
C/C(=N\NC(=O)C(c1ccccc1)c1ccccc1)c1ccccn1,88*,40,-1.0
Nc1nnnn1/N=C/c1ccccc1OCc1ccccc1,-13,16,0.9
CN1CCN(S(=O)(=O)c2cc([N+](=O)[O-])ccc2N/N=C/c2ccc(Cl)cc2)CC1,4,-11,0.1
Cc1nc2ccc(CN(C)c3ccc(C(=O)N[C@@H](CCC(=O)O)C(=O)O)s3)cc2c(=O)[nH]1,-2,48,?
Cc1ccc(-c2csc(/C(C#N)=C(\O)CN3CCN(C(=O)c4ccco4)CC3)n2)cc1,-6,-1,0.4
CN(C)c1ccc(/C=N/NC(=O)c2ccc(CN3C(=O)c4cccc5cccc3c45)cc2)cc1,-4,6,-0.2
COc1cccc(/C=N/N2CCN(C)CC2)c1,-5,28,0.4
COC(=O)CCCC1=CC2=CC(=O)C(C)(O)C(=O)C2=CO1 (centres undefined),-5,4,0.8
Cc1cc(=O)[nH]c(N=N/C(=N/Nc2ccccc2C)c2ccccc2)n1,93*,40,1.2
COC(=O)c1c(N2C(=O)[C@H]3[C@@H](C2=O)[C@]2(C(=O)Nc4ccc(C)cc42)N2CCC[C@@H]32)sc(C)c1C,-6,-12,-0.4
COc1cccc(OC)c1-c1nn2c(-c3cc(-c4ccccc4)n[nH]3)nnc2s1,5,41,-0.7
Cc1nn(-c2ccccc2)c(Cl)c1/C=N/NC(=O)c1ccc(NS(=O)(=O)c2cccs2)cc1,2,17,-0.8
COc1ccc(Cn2nnnc2C(C(C)C)N(Cc2ccco2)Cc2cccs2)cc1 (centres undefined),3,46,2.4
COc1ccc(-c2cnnc(N/N=C/c3ccc(O)c(OC)c3)n2)cc1,26,-9,-1.0
CC12CCC(C(=O)N(CSC(=S)N/N=C\c3ccccc3)C1=O)C2(C)C (centres undefined),8,-13,-1.1
COc1cc(/C=N/NC(=O)c2cnn3c(C)cc(-c4ccccc4)nc23)ccc1O,12,2,-0.2
CN(C)/N=C/c1ccc(Sc2ccc([N+](=O)[O-])cc2[N+](=O)[O-])o1,-10,-7,0.2
CCOC(=O)COc1ccccc1/C=C\[N+](=O)[O-],106*,9,3.4
O=C1C2C3C=CC(C4CC34)C2C(=O)N1/N=C/c1ccc(-c2ccc(Cl)cc2[N+](=O)[O-])o1 (centres undefined),-3,12,0.2
Cc1cc(C(=O)N/N=C2\CC(=O)CC(C)(C)C2)c(C)n1-c1ccc(F)cc1,-3,8,0.2
COc1cc(N2CCCC2)c(OC)cc1/C=C(/C#N)c1cccc(Br)c1,-8,44,-1.1
CCOc1ccc(C2C=C(c3ccccc3)Nc3ncnn32)cc1 (centres undefined),6,9,0.1
CC(C)C[C@H](N)c1nnc(S(=O)(=O)Cc2ccc(F)cc2)o1,12,-6,0.2
COc1cccc(/C=N/Nc2ncnc(N)c2[N+](=O)[O-])c1OC,3,-4,-4.9
Cc1ccc2nc(C)/c(=N\O)c(C)nc2c1,-2,2,-0.8
O=C(/C=N/O)NCCCn1ccnc1,-2,-8,0.7
Nc1ccc(O)c2ccccc12,2,23,-0.4
COc1cc(OC)c(OC)cc1/C=N/NC(=O)C[n+]1ccccc1,-3,-6,-0.5
O=C(N/N=C/c1ccc2ccccc2c1)c1ccc(COc2ccc3c(c2)CCC3)o1,0,24,-0.2
NC(=O)c1ccc(NC(=O)c2ccccc2S(=O)(=O)c2ccccc2[N+](=O)[O-])cc1,-8,-27,0.4
O=C(NC1(C(F)(F)F)C(=O)Nc2c1c(=O)[nH]c(=O)n2Cc1ccccc1)c1ccc(Cl)cc1 (centres undefined),-7,-35,1.4
CCOC(=O)CC(=O)Nc1ccc(C)cc1,2,-4,0.3
COc1ccc([N+](=O)[O-])cc1/C=N/NC(=O)/C(=C\c1cccs1)NC(=O)c1ccccc1,6,0,-0.2
CCOc1ccc2nc(/N=C/c3nc(-c4ccccc4)oc3O)sc2c1,-2,-2,-0.1
FCCCOc1ccc(/C=N/OCc2ccc(Cl)cc2)cc1,2,-17,-0.3
C(=N\N1CCN(C2c3ccccc3-c3ccccc32)CC1)/c1cccnc1,4,7,0.6
# Remaining list, next part
SMILES,Beta cell apopt,T cruzi inh,Bfl-1 A1 inh
CN1C(=O)/C(=C/c2ccccc2OCc2ccccc2F)NC1=S,1,-21,0.1
O=C(Nc1ccccc1Cl)O/N=C/c1ccncc1,-6,2,-0.7
O=c1oc2cc([N+](=O)[O-])ccc2nc1/C=C(O)/C=C/c1ccccc1,-2,7,0.0
CCN(CC)C(=O)C1CCCN(c2ccc([N+](=O)[O-])cc2/C=N/NC(=O)c2cccc([N+](=O)[O-])c2)C1 (centres undefined),7,27,0.1
C/C(=N\NC(=O)c1ccccc1)c1ccc(C)c([N+](=O)[O-])c1,3,2,-0.3
CCn1cc(C(=O)O)c(=O)c2cc3c(cc21)OCO3,-1,2,-0.9
Fc1ccc(COc2ccc(Cl)cc2/C=N/Nc2nc(N3CCCC3)nc(N3CCCC3)n2)cc1,-4,-19,-0.2
CC(=N\Nc1ccccc1)/C(=N/O)C(=O)Nc1ccccc1,-9,-13,-0.5
Cc1[nH]n(-c2ccccc2)c(=O)c1/C=N/N(C)c1ccccc1,4,-13,0.3
CN(C)/C=C1/C(=O)N(c2ccc([N+](=O)[O-])cc2)N=C1c1ccccc1,-2,-6,-8.2

# Part of the list above, with bars between the fields.
SMILES | Beta cell apopt | T cruzi inh | Bfl-1 A1 inh
Cc1[nH]n(-c2ccccc2)c(=O)c1/C=N/N(C)c1ccccc1 | 4 | -13 | 0.3
COc1ccc(-c2cnnc(N/N=C/c3ccc(O)c(OC)c3)n2)cc1 | 26 | -9 | -1.0

# The list goes on.
SMILES,Beta cell apopt,T cruzi inh,Bfl-1 A1 inh
CC1=NN(/C(=N\c2nnc(C)s2)Nc2ccccc2)[C@H](c2cccc3ccccc23)S1,-2,6,-2.3
C=CCc1c(C)nc(C)nc1N/N=C/c1ccc(F)cc1,5,-15,1.2
CCOc1ccc(NC(=O)CCC(=O)N/N=C/c2ccc([N+](=O)[O-])s2)cc1,-10,51,2.5
C=CCc1cccc([C@@H]2[C@@H](C)CC[C@H]3C(=O)N4[C@@H](c5cc(OC)c(OC)c(OC)c5)c5[nH]c6ccccc6c5C[C@H]4C(=O)N23)c1,3,47,1.5
O=C(O)c1ccc(NS(=O)(=O)c2cc(Cl)ccc2Cl)cc1,-6,13,0.8
CC(=O)Nc1ccc(C(=O)N/N=C/c2ccccc2OC(=O)c2ccc(Cl)cc2)cc1,23,-6,0.1
Cc1cc(C(F)(F)F)n(-c2nc(C(=O)N/N=C/c3ccc(F)cc3)cs2)n1,-4,9,0.5
COC(=O)[C@@H]1CC[C@H](C)[C@@H](c2ccc(C)cc2)N1C(=O)c1ccc(/C=N/O[C@@H](C)c2cn([C@H](CO)Cc3ccccc3)nn2)cc1,4,62*,-0.6
CC(C)(C)c1cc(/C=N/NC(=O)Cc2nc3ccccc3[nH]2)cc(C(C)(C)C)c1O,-17,-7,1.4
C/C(CCc1ccc2c(c1)OCO2)=N\N=C1\NC(=O)CC(C(=O)Nc2ccccc2)S1 (centres undefined),-3,-25,-0.9
Oc1c(Cl)cc(Cl)cc1/C=N/c1nccs1,-6,-32,0.3
CC1(C)C(=O)OC(c2cccn2-c2cccc([N+](=O)[O-])c2)C2(CCCCC2)C1=O (centres undefined),3,-13,-0.6
Fc1ccccc1/C=N/Nc1nc(-c2ccccn2)nc2ccccc12,105*,55*,-0.1
Cc1ccccc1C(=O)Nc1ccccc1C(=O)N/N=C\c1ccco1,0,-6,0.3
O=C(NCC1OCCc2ccccc21)c1ccc(NC(=O)c2ccc(Cl)cc2)cc1 (centres undefined),37,16,0.9
COC(=O)/C(=N/Nc1cccc(C)c1)N1CCCc2ccccc21,2,3,-0.9
CCN1C(=O)/C(=c2\s/c(=C3\Sc4ccccc4N3C)c(=O)n2C)N(C)C1=S,1,-2,0.2
Cc1ccc(/C=N/N2CCN(Cc3ccccc3)CC2)o1,1,-1,-0.1
CSC(=N/N=C(\N)c1cnccn1)SC,-1,-6,0.5
Clc1ccccc1-c1ccc(/C=N/n2cnnc2)o1,-5,47,-0.4

# One compound at a time, as listed above.
# `Cc1cc(C(F)(F)F)n(-c2nc(C(=O)N/N=C/c3ccc(F)cc3)cs2)n1` reads Beta cell apopt: -4; T cruzi inh: 9; Bfl-1 A1 inh: 0.5
# `O=c1oc2cc([N+](=O)[O-])ccc2nc1/C=C(O)/C=C/c1ccccc1` reads Beta cell apopt: -2; T cruzi inh: 7; Bfl-1 A1 inh: 0.0
# `CC(C)(NO)/C(=N\O)c1ccc(Cl)cc1` reads Beta cell apopt: 0; T cruzi inh: 1; Bfl-1 A1 inh: -0.1

# The results go on.
SMILES,Beta cell apopt,T cruzi inh,Bfl-1 A1 inh
COc1ccc(CNC(=O)c2ccc(N3CCC4(CC3)CC(c3ccc(Cl)cc3)=NO4)c(N)c2)cc1,24,-8,-0.2
CC(C)c1cc(C(=O)N/N=C/c2cccnc2)cs1,2,-21,-0.4
CC(=O)OC[C@H]1O[C@H](C/C=N/OC[C@@H](O)[C@H]2O[C@@H]3OC(C)(C)O[C@@H]3[C@H]2O)C=C[C@@H]1OC(C)=O,-3,-11,-0.7
O=C(O)C1CC=CCC1C(=O)Nc1ccc(N2CCN(Cc3ccccc3)CC2)cc1 (centres undefined),8,8,0.1
O=C(CCl)c1ccc2c(c1)CCN2C(=O)C1CC1,-25,19,-0.4
COc1ccc(/C=N/n2cc(-c3ccccc3)nc2N)cc1,7,30,-1.3
O=C(N/N=C/c1sc2ccccc2c1O)c1ccccc1,103*,21,-2.1
CCOC(=O)c1c(C)[nH]c(C(=O)COC(=O)c2ccncc2)c1C,-13,-3,-0.1
CCCCCC(=O)N/N=C(\C)c1ccc(Cl)cc1,8,0,-0.6
CCC/C(=N/Nc1ccc(Cl)cc1)c1cnnc(-c2ccccc2)n1,32,-3,0.3
COc1ccc(/C=N/n2c(C)nnc2C)c(OC)c1,-1,-13,-0.1
COc1ccc2cc(/C=N/NC(=O)CN(c3ccccc3)S(=O)(=O)c3ccccc3)c(Cl)nc2c1,10,17,-0.9
CCCS(=O)(=O)N1CCC(C(=O)N2CCc3ccccc3C2)CC1,0,-4,0.2
CC1=NNC(=O)C1C(c1ccccc1)C1C(=O)NN=C1C (centres undefined),-1,7,-0.3
Cn1c(O)c(C2=c3ccccc3=NC2=O)[nH]c1=S,5,-18,-0.1
Cc1sc2ncnc(SCC(=O)c3ccc(Cl)s3)c2c1C,-6,-12,0.3
COc1ccc(/C(C)=N\NC(=O)CSc2nnc(C)s2)cc1,-2,2,0.2
O=C(C/C=N\OCc1c(Cl)cccc1Cl)Oc1ccc(Cl)cc1Cl,6,-15,-0.6
COc1cc(/C=N/N2C(=O)c3ccccc3NC2(C)c2cccc([N+](=O)[O-])c2)cc(Br)c1O (centres undefined),2,-10,0.2
Cc1cccc(Nc2cc(=O)[nH]c(=O)[nH]2)c1C,-1,-6,-1.1
Cc1cc(C)nc(N/N=C/C2=C(N3CCOCC3)C(=C/c3ccccc3)/CC2)n1,4,12,-0.3
CCC(=O)Nc1ccc(C(=O)Nc2cccc(C)n2)cc1,0,-5,-10
CC1(OC(=O)c2cnc3ccccc3n2)C(=O)C=C2C=C(c3ccc(C#N)cc3)OC=C2C1=O (centres undefined),-3,-13,0.4
O=C(N/N=C1/C(=O)c2cccc3cccc1c23)c1ccc(Cl)cc1,27,30,-0.8
COc1cc(/C=N/NC(=O)c2ccoc2C)cc(OC)c1O,5,-12,-0.5

# Screening results as filed in PubChem BioAssay.

# Some of the compounds tested (hit frequency here may not be typical).
